# Screening results (PubChem BioAssay)
# eIF4H inh = inhibitors of RNA binding by human eIF4H. Q15056. eIF4H fluorescence polarization binding assay. inhibition, % at 35 µM. 0.94% of 290,000 active. AID 2012;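 active = 50% or more with normal probe brightness, or confirmed in later tests; inconclusive = above 50% with abnormal brightness, or retests that disagree; inactive = below 50% or failed in later tests; about a fifth of its hits are not listed in these tables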;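 note: calls also rest on retests at 20 µM and on dose response follow-up; 0% = protein and probe with vehicle and 100% = probe without protein; strong numbers were not always called active; many hits fall short of the cut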
# Env fusion inh = inhibitors of HIV Env-mediated cell fusion; 1.1% of 360,000 active; AID 651610; HeLa-JRFL Env/CEM21 cell fusion, luciferase; inhibition, % at 12.3 µM;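 active = mean replicate inhibition score of at least 50 and every replicate individually at or above 50; inconclusive = only one of the two criteria met; inactive = mean below 50 and not all replicates reaching 50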;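 note: 0% = plate neutral controls and 100% = maraviroc near 300 nM; one replicate is shown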
# UUG fidelity = alters start codon recognition fidelity in yeast. activity score, % at 18.7 µM. AID 602363. 0.13% of 350,000 active. S. cerevisiae UUG-firefly luciferase reporter, luminescence/redox ratio;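 active = replicate mean at a twofold rise or more, about +100% in these data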;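 note: firefly luciferase made from a UUG start codon reports start codon fidelity; reporter light over untreated wells divided by growth signal over untreated wells; some hits fall short of that in this replicate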
# Rce1 inh = blocks yeast Ras-converting enzyme; AID 2563; calls only; 0.27% of 290,000 active; yeast membranes, quenched prenylated peptide cleavage fluorescence;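 active = fall in fluorescence gain of 50% or more versus controls, with final raw signal at or below 3038400; inconclusive = same 50% fall but final raw signal above 3038400; inactive = fall in fluorescence gain under 50%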;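 note: plate controls were neutral control wells for no effect and wells lacking membranes for full effect; tested at 10 µM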
# Target sequence (Q03530 whole entry, looked up): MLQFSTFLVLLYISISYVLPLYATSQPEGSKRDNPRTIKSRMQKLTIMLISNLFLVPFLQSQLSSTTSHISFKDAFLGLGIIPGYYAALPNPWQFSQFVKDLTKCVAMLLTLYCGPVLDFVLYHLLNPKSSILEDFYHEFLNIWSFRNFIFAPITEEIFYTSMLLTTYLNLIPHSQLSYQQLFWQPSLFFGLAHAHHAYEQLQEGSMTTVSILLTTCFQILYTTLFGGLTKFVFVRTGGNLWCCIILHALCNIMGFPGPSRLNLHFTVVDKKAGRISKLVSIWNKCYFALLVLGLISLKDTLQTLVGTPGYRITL
# PABP polyA inh = PABP-poly(A) binding inhibition; P11940; PABP-poly(A) RNA binding, fluorescence polarization; AID 2014; 1% of 290,000 active; inhibition, % at 35 µM;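 active = 50% or more with normal probe brightness, or confirmed in later tests; inconclusive = above 50% with abnormal brightness, or retests that disagree; inactive = below 50% or failed in later tests; about a fifth of its hits are not listed in these tables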;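 note: calls also rest on retests at 20 µM and on dose response follow-up; controls were probe without protein and protein plus probe with vehicle; some compounds called inactive have numbers as strong as hits; many hits fall short of the cut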
# MT1-MMP act inh = blocks activation of human MT1-MMP. P50281. HT1080 RFP-PRO-GFP cells, GFP/RFP ratio fluorescence, overnight; percent of plate control window, DMSO zero. GFP/RFP ratio change, % at 20 µM. 0.061% of 360,000 active. AID 651647;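 active = GFP/RFP ratio change of at least 30% with cell ATP level not reduced by more than half and red fluorescence within 50% of control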; note: strong numbers were not always called active
#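 Test system: HT1080 RFP-PRO-GFP cells; Benchmarks: DMSO and RFP-L50D-GFP cell wells; Timing: cells overnight before dosing, compound overnight, 37 °C, 5% CO2; Compound: one 20 µM compound dose with 1% DMSO; Read-out: GFP/RFP fluorescence ratio.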
# CSC inhib = cancer stem cell inhibition; cancer stem cell-like cells viability, luminescence; inhibition, % at 7.5 µM; 1.1% of 300,000 active; AID 2717;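 active = mean at 75% or more and at least half the replicates too; inconclusive = mean and replicates disagree; tested in HMLE shEcad cells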;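 note: 0% = median of negative and 100% = median of positive control wells; the first replicate is given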
# eIF4H inh retest = second read-out of eIF4H inh, no call of its own (marks repeat the call); inhibition, %; compound at 20 µM; confirmation average;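 mean of two retest wells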
# PABP polyA inh retest = second read-out of PABP polyA inh, no call of its own (marks repeat the call); inhibition, %; compound at 20 µM; confirmation repeats;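 mean of two retest wells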
# MT1-MMP act inh RFP = further read-out of MT1-MMP act inh, marked with its call; RFP signal change, %; measured here: RFP expression control read;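 0 = vehicle wells; hits needed this value within 50% of zero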
# Starred values were filed as active, the others as inactive; i = inactive; u = inconclusive; x = no result given.
SMILES,eIF4H inh,Env fusion inh,UUG fidelity,Rce1 inh,PABP polyA inh,MT1-MMP act inh,MT1-MMP act inh RFP,CSC inhib,others
CCOc1ccc(Cl)cc1S(=O)(=O)NC1CCCC1,-10,3,-4,i,9,-8,0,11,
CCn1c2ccccc2c2cc(NC(=O)CSc3nnc(-c4cccc(F)c4)o3)ccc21,4,x,-17,i,-2,-2,-2,25,
Cc1ccc(C(=O)Nc2ccc(C(=O)N/N=C/c3ccncc3)cc2)cc1,-5,x,x,i,-2,x,x,-8,
O=C(Nc1ccsc1C(=O)O)c1cccc(C(F)(F)F)c1,-5,-38,x,i,4,4,1,11,
CCOC(=O)CSc1nnnn1-c1cc(OC)ccc1OC,-4,4,-18,i,3,-1,-2,-18,
CCOc1ccccc1/C=N/NC(=O)c1nnn(-c2nonc2N)c1CN1CCCC1,-13,-15,-17,i,-4,1,-1,-14,
Cc1ccc2c(c1)c1ncnc(N3CCOCC3)c1n2C,10,x,3,i,13,2,-3,-4,
CC(C)(C)OC(=O)C(C1NC(C(=O)O)C(C)(C)S1)N1C(=O)c2ccccc2C1=O (stereo unspecified),x,24,-4,x,x,-2,-2,x,
COc1cc(/C=C2\CCCc3c2nc2ccccc2c3C(=O)O)cc(Cl)c1O,-9,5,-7,x,30,-5,3,-3,
Cc1ccccc1NC(=O)/C(=C/c1cccs1)NC(=O)c1ccco1,-2,-14,x,i,11,-5,3,-12,
O=C(NCCO)/C(=C\c1ccc(Br)cc1)NC(=O)c1cccs1,-1,x,x,i,-5,8,-1,-17,
COc1ccccc1CCC(=O)N1CCC(n2nccc2NC(=O)CC(C)C)CC1,12,-3,2,i,-1,-1,1,0,
CCCn1nnc(NC(=S)NC(=O)/C=C/c2ccc(Cl)cc2)n1,-11,-29,-7,i,5,1,1,37,
Cn1c(N)c(S(=O)(=O)N2CCN(c3ccccc3)CC2)c(=O)n(C)c1=O,4,1,x,i,12,-4,-1,x,
Cc1cc(C)c2nc(N3CCCN(C(=O)c4cnccn4)CC3)c(C#N)cc2c1,4,7,-7,x,11,-18,5,1,
CCN(CC)c1ccc2cc(C(=O)Nc3ccccn3)c(=O)oc2c1,122*,i,-24,i,118*,-176,4,11,eIF4H inh retest=104*;PABP polyA inh retest=106*
CCc1nc(SCc2cccnc2)c(C#N)cc1C,-11,13,-16,i,2,-6,-2,-7,
Cc1cc(C)n(-c2ccccc2C#N)n1,-1,-8,-18,i,5,1,3,-4,
O=C(NC1CCCc2ccccc21)c1ccccc1Cl (stereo unspecified),-8,10,-8,i,-6,0,2,-2,
COc1ccc(C2NC(=O)NC(C)=C2[N+](=O)[O-])cc1 (stereo unspecified),-21,6,-9,i,5,-2,0,-14,
O=C(/C=C/c1ccc(-c2ccccc2[N+](=O)[O-])o1)c1ccccc1,23,-13,-30,i,-4,6,8,3,
Cc1ccc(S(=O)(=O)c2nc(-c3ccccc3)oc2N2CCCC2)cc1,x,4,-12,x,x,1,8,x,
Cc1[nH]n(-c2ccccc2)c(=O)c1N=Nc1ccccc1,4,-30,x,i,-5,2,1,14,
Cc1ccc(CC(=O)Nc2cc(C)ccn2)cc1,-3,-6,-9,i,-4,-5,-3,-5,
COc1ccccc1CNC(=O)Cc1cc(=O)[nH]c(=O)[nH]1,6,8,-11,i,-8,1,6,4,
# Remaining list, next part:
SMILES,eIF4H inh,Env fusion inh,UUG fidelity,Rce1 inh,PABP polyA inh,MT1-MMP act inh,MT1-MMP act inh RFP,CSC inhib,others
COc1ccc(C(=O)Nc2cccc(/C(C)=N/NC(=O)c3ccc([N+](=O)[O-])c(C)c3)c2)cc1OC,4,-103,-13,x,8,-1,-1,-9,
COc1ccc(S(=O)(=O)N2c3ccccc3OCC2C(C)(C)C)cc1 (stereo unspecified),-10,9,x,i,5,-5,-1,-12,
CCCn1nnc(NC(=O)c2cccc(OCC(C)C)c2)n1,-18,x,-11,i,-10,2,1,6,
Cc1cc(C(F)F)n2nc(C(=O)Nc3cccc(S(=O)(=O)N4CCOCC4)c3)nc2n1,-8,6,-6,i,6,-3,-1,-21,
NS(=O)(=O)c1ccc(CCNC(=O)c2ccc(Cl)s2)cc1,-2,-2,1,i,-7,-7,-3,-5,
CCOc1ccccc1N(CC)C(=O)c1ccc2c(=O)n3c(nc2c1)CCCCC3,-14,10,0,i,6,-6,-4,0,
COc1ccc(/C=C/C(=O)Nc2ccncc2)cc1OC,1,4,-19,i,-14,2,4,27,
CCOc1ccc(NC(=O)c2ccc(N3CC4CC(C3)c3cccc(=O)n3C4)c(NC(=O)c3cccnc3)c2)cc1 (stereo unspecified),-14,18,-9,i,-9,-4,-4,-15,
CCN1CCCC1CNC(=O)c1cc2cc(OC)c(OC)cc2[nH]1 (stereo unspecified),14,2,-18,u,4,3,9,0,
N#Cc1ccccc1OCC(=O)Nc1ccc2c(c1)OCCO2,x,x,-16,x,x,4,3,-8,
O=C(c1ccc(Cl)cc1)N1CCCC(C(=O)N2CCN(c3ccccc3)CC2)C1 (stereo unspecified),5,11,-3,i,8,3,3,-4,
O=C(CN1CCCCC1)Nc1ccc(Br)cc1[N+](=O)[O-],-10,-2,-12,i,3,2,1,7,
COc1ccc(C(c2c(O)ccc3ccccc23)N2CCOCC2)c(OC)c1 (stereo unspecified),4,-143,-9,i,9,10,2,101*,
O=C(NCCN1CCOCC1)c1cc2sccc2n1Cc1ccc(F)cc1,9,-29,-19,i,-4,-5,0,-5,
O=[N+]([O-])c1ccc(O)c(/C=N/NC2=NS(=O)(=O)c3ccccc32)c1,34,-15,x,i,-2,3,3,1,
COc1cccc(N2CCN(C(=O)c3ccc(CS(=O)Cc4ccc(C)cc4)o3)CC2)c1 (stereo unspecified),3,1,0,i,2,1,-5,-8,
COc1ccc(-c2nn(C)c3sc(C(=O)NCc4ccco4)cc23)cc1OC,-14,-10,-18,i,-1,0,0,5,
FC(F)(F)c1nc(NCC2CCCO2)c2nnn(Cc3ccccc3Cl)c2n1 (stereo unspecified),1,-13,x,x,-3,2,-4,-11,
CN(C)CCN(C(=O)c1ccccc1Cl)c1nc2c(Cl)cccc2s1,0,-51,-7,i,18,1,3,9,
COC(=O)c1cc(C#N)c(N2CC(C)OC(C)C2)nc1C (stereo unspecified),-2,16,-5,i,-7,-1,2,1,
Cc1ccccc1OCC(=O)Nc1ccc2c(c1)OCO2,-7,x,-14,i,-7,-1,4,-16,
COCCN(C(=S)Nc1cccc(OC)c1)C(C)c1cccs1 (stereo unspecified),0,-18,x,i,2,0,3,-9,
O=S(=O)(NCCCc1ccccc1)c1ccc(F)c(F)c1,-13,-6,-10,i,-4,-4,-3,3,
CCN(CC)c1ccc(C2C(C(=O)OC(C)C)C(=O)CC(C)(O)C2C(=O)OC(C)C)cc1 (stereo unspecified),3,3,-10,i,0,-2,-4,1,
Cc1noc(C)c1S(=O)(=O)N1CCC(C(=O)N2CCN(c3ccc(F)cc3)CC2)CC1,0,x,x,i,0,x,x,-2,

# An excerpt from above in order of heavy-atom count, largest number first.
SMILES,eIF4H inh,Env fusion inh,UUG fidelity,Rce1 inh,PABP polyA inh,MT1-MMP act inh,MT1-MMP act inh RFP,CSC inhib,others
CCOc1ccc(NC(=O)c2ccc(N3CC4CC(C3)c3cccc(=O)n3C4)c(NC(=O)c3cccnc3)c2)cc1 (stereo unspecified),-14,18,-9,i,-9,-4,-4,-15,
COc1ccc(C(=O)Nc2cccc(/C(C)=N/NC(=O)c3ccc([N+](=O)[O-])c(C)c3)c2)cc1OC,4,-103,-13,x,8,-1,-1,-9,
CCN(CC)c1ccc(C2C(C(=O)OC(C)C)C(=O)CC(C)(O)C2C(=O)OC(C)C)cc1 (stereo unspecified),3,3,-10,i,0,-2,-4,1,
Cc1cc(C(F)F)n2nc(C(=O)Nc3cccc(S(=O)(=O)N4CCOCC4)c3)nc2n1,-8,6,-6,i,6,-3,-1,-21,
CCOc1ccccc1N(CC)C(=O)c1ccc2c(=O)n3c(nc2c1)CCCCC3,-14,10,0,i,6,-6,-4,0,
O=C(c1ccc(Cl)cc1)N1CCCC(C(=O)N2CCN(c3ccccc3)CC2)C1 (stereo unspecified),5,11,-3,i,8,3,3,-4,
COc1ccc(-c2nn(C)c3sc(C(=O)NCc4ccco4)cc23)cc1OC,-14,-10,-18,i,-1,0,0,5,
O=C(NCCN1CCOCC1)c1cc2sccc2n1Cc1ccc(F)cc1,9,-29,-19,i,-4,-5,0,-5,
CN(C)CCN(C(=O)c1ccccc1Cl)c1nc2c(Cl)cccc2s1,0,-51,-7,i,18,1,3,9,
CCN1CCCC1CNC(=O)c1cc2cc(OC)c(OC)cc2[nH]1 (stereo unspecified),14,2,-18,u,4,3,9,0,
COCCN(C(=S)Nc1cccc(OC)c1)C(C)c1cccs1 (stereo unspecified),0,-18,x,i,2,0,3,-9,
CCCn1nnc(NC(=O)c2cccc(OCC(C)C)c2)n1,-18,x,-11,i,-10,2,1,6,
NS(=O)(=O)c1ccc(CCNC(=O)c2ccc(Cl)s2)cc1,-2,-2,1,i,-7,-7,-3,-5,
O=C(CN1CCCCC1)Nc1ccc(Br)cc1[N+](=O)[O-],-10,-2,-12,i,3,2,1,7,

# (continued)
SMILES,eIF4H inh,Env fusion inh,UUG fidelity,Rce1 inh,PABP polyA inh,MT1-MMP act inh,MT1-MMP act inh RFP,CSC inhib,others
Cc1ccc(NC(=O)c2cc(-c3cc(C)c(C)cc3O)n[nH]2)cc1C,-4,-24,-16,i,-1,2,3,-15,
CCOc1ccc(Cl)cc1CNCCCSc1ncccn1,4,-37,11,i,4,0,2,-8,
O=C(CSc1nnc(-c2cccs2)n1-c1ccccc1)NCC1CCCO1 (stereo unspecified),6,-191,-6,i,2,-1,2,-2,
O=C(NCc1cccs1)c1ccc(N2CCCC2=O)cc1,-7,x,-18,i,-3,2,4,9,
CC(=O)Nc1ccc(S(=O)(=O)N2c3ccc(F)cc3CCC2C)cc1 (stereo unspecified),x,-11,-5,x,x,-5,-16,58,
Cc1ccc(S(=O)(=O)N2C[C@H]3C(=O)C[C@@H](c4cccc5ccccc45)N(S(=O)(=O)c4ccc(C)cc4)[C@H]3C[C@H]2c2ccc(Cl)cc2)cc1,x,-51,-13,x,x,-1,-3,x,
O=c1cnnc(Nc2ccccc2F)[nH]1,2,-18,-4,i,4,-7,1,-1,
C#CCOCCOCCOCCNc1nc(N2CCN(C(=O)C([C@@H](C)CC)n3cc(C(N)CC(C)C)nn3)CC2)nc(N2CCN(C(=O)[C@H](CCC(=O)O)n3cc(C(N)CC(C)C)nn3)CC2)n1 (stereo partly specified),9,x,78,i,3,6,2,-20,
Cc1ccc(-n2nnnc2SC(C)C(=O)Nc2ccc(Cl)cn2)cc1 (stereo unspecified),0,9,-15,i,-5,-1,1,-9,
O=C(NCc1ccco1)c1sc2cc(Cl)ccc2c1Cl,17,-61,-25,i,-2,5,-2,11,
O=C(CSc1ncnc2c1oc1ccccc12)N1CCCc2ccccc21,5,42,-9,i,7,2,-10,10,
Cc1ccc(NC(=O)c2cccc(N3C(=O)C4C5CCC(C5)C4C3=O)c2)c(C)c1 (stereo unspecified),-11,18,x,i,-11,3,-3,-11,
c1ccc(SCCN2CCc3ccccc3C2)cc1,7,-19,2,x,6,0,-9,-1,
O=C(Nc1ccc2oc(-c3ccccc3F)nc2c1)c1ccc([N+](=O)[O-])o1,28,-17,-18,i,-3,-1,-2,5,
